NPYLR7 agonist = mosquito NPYLR7 agonism. 0.15% of 270,000 active. AID 1259423. activation, % at 10 µM. HEK293T NPYLR7/Galpha15, GCaMP6s calcium fluorescence; in the data active = activation above about 40%;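 also: 0% = vehicle and 100% = reference agonist at the receptor; some compounds past the cut are filed as inactive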
NPYLR7 agonist max-min = second read-out of NPYLR7 agonist, no call of its own (marks repeat the call); activation, %; measured here: Max-Min RFU normalised activation; some inactives read as strong as hits;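 span of the calcium signal over five minutes; 0% = vehicle and 100% = native peptide agonist; compound fluorescence can raise it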
Numbers without * were called inactive; & = joins results of further samples.

SMILES	NPYLR7 agonist	NPYLR7 agonist max-min
COc1cc2c(cc1OC)C(=O)N(C)C1(CCc3ccccc3C1)N2 (centres undefined)	-6&-3	-9&-3
COCC(O)CN(Cc1ccco1)Cc1c(C)nn(-c2ccccc2)c1Oc1cccc(F)c1 (centres undefined)	-21	-18
CC1(C(=O)NS(=O)(=O)c2ccccc2Cl)CCN1C(=O)c1ccccc1CCc1ccccc1 (centres undefined)	6	3
CCn1nnc2c(NCc3c(F)cccc3F)ncnc21	-2	6
CCOC(=O)CSc1nnc(CNC(=O)C23CC4CC(CC(C4)C2)C3)n1Cc1ccccc1	0	-2
CC(=O)Nc1cc(-c2ccccc2)nn1-c1ccc(C(=O)NC(C)CC(C)C)cc1 (centres undefined)	-6	-12
Cc1cc(N=Cc2nc(-c3ccccc3)oc2O)no1	3	0
Cc1nc(-c2cccc(F)c2)nc(N2CCN(C(=O)c3cccc(C(F)(F)F)c3)CC2)c1C	2	7
Clc1ccc2nc(C3CCCN3Cc3nc(Cc4ccccc4)no3)[nH]c2c1 (centres undefined)	3	1
CCC(C)NC(=O)c1cc(NC(=O)c2ccc(Cl)cc2Cl)ccc1N1CCc2ccccc2C1 (centres undefined)	0	14
CC(C)SCC(=O)N1CC[C@@H](c2ccc3c(c2)OCO3)[C@H](O)C1	-6	-6
CC(=O)c1cccc(Nc2nccc3[nH]c(-c4ccsc4)cc23)c1	-6	-11
Cn1cnnc1Sc1ccc(C2NCCc3[nH]cnc32)o1 (centres undefined)	-1&2	-3&4
Cc1cccc(Cc2ccc3ncc(-c4ccccc4)n3n2)c1	1	0
O=S(=O)(NC1CC1)c1ccc2ccccc2c1	-1	5

Record cards (already shown). Order of screens: NPYLR7 agonist | NPYLR7 agonist max-min
Entry for Cc1nc(-c2cccc(F)c2)nc(N2CCN(C(=O)c3cccc(C(F)(F)F)c3)CC2)c1C = 2 | 7
Entry for CCn1nnc2c(NCc3c(F)cccc3F)ncnc21 = -2 | 6
Entry for Cn1cnnc1Sc1ccc(C2NCCc3[nH]cnc32)o1 (centres undefined) = -1&2 | -3&4
Entry for Cc1cc(N=Cc2nc(-c3ccccc3)oc2O)no1 = 3 | 0

Next part.
SMILES	NPYLR7 agonist	NPYLR7 agonist max-min
CC1(C(=O)NS(=O)(=O)c2ccc(Cl)cc2)CCN1C(=O)C1CC1 (centres undefined)	0	0
CCCCC(=O)N(C)c1c(CC)nc2c(OCCC3CCCCC3)cccn12	-16	-7
NC(=O)C1CN(CC(=O)C23CC4CC(CC(C4)C2)C3)c2ccccc2O1 (centres undefined)	6	4
COc1ccccc1-c1cnn2c(C)c(C(=O)NCCCn3ccnc3)cnc12	9	2
CC(C)c1n[nH]c2c1CN(CCC(=O)N1CCCc3ccccc31)CC2	1	-1
C=CCNCC(=O)N(CCc1ccc(OC)c(OC)c1)Cc1sccc1C	3	2
CC1CCCCC1NC(=O)COC(=O)C1CC2CCCC(C1)C2=O (centres undefined)	8	11
Cc1c(Cl)cccc1S(=O)(=O)Nc1ccc(CC(=O)N2CCCC2)cc1	-1	-5
CCN(CC)C(=O)CN(Cc1ccc(Cl)c(Cl)c1)S(=O)(=O)c1ccccc1	5	3
O=C(Nc1ccc(SCC(=O)N2CCN(c3ccccc3)CC2)nn1)c1ccccc1	2	5
CCOc1ccc(N2CCc3c2nc2ccc(Br)cc2c3N)cc1	-3	-12
CC(C)c1nccn1CCCNC(=O)c1ccc(-c2ccoc2)nc1	2	-6
O=C(CN1CCc2sccc2C1c1cccs1)N1CCOC1=O (centres undefined)	3	3
COc1cc(C=NS(=O)(=O)c2ccc(Br)cc2)cc(OC)c1O	-4	-5
Fc1ccc(Nc2nnc3n2CCCCC3)cc1Cl	6	6

2 entries picked at random from the list so far, as already listed:
SMILES	NPYLR7 agonist	NPYLR7 agonist max-min
C=CCNCC(=O)N(CCc1ccc(OC)c(OC)c1)Cc1sccc1C	3	2
CC(C)c1nccn1CCCNC(=O)c1ccc(-c2ccoc2)nc1	2	-6

Six structures already listed, arranged by molar mass, falling:
SMILES	NPYLR7 agonist	NPYLR7 agonist max-min
Cc1c(Cl)cccc1S(=O)(=O)Nc1ccc(CC(=O)N2CCCC2)cc1	-1	-5
C=CCNCC(=O)N(CCc1ccc(OC)c(OC)c1)Cc1sccc1C	3	2
CCOc1ccc(N2CCc3c2nc2ccc(Br)cc2c3N)cc1	-3	-12
CC1(C(=O)NS(=O)(=O)c2ccc(Cl)cc2)CCN1C(=O)C1CC1 (centres undefined)	0	0
NC(=O)C1CN(CC(=O)C23CC4CC(CC(C4)C2)C3)c2ccccc2O1 (centres undefined)	6	4
Fc1ccc(Nc2nnc3n2CCCCC3)cc1Cl	6	6

(more compounds)
SMILES	NPYLR7 agonist	NPYLR7 agonist max-min
O=C(C1CCCCN1S(=O)(=O)c1cc(F)cc(F)c1)N1CCCC1 (centres undefined)	5	5
CCc1ccccc1-c1ccc(C)nc1N	0	-1
C=CCN(Cc1cccn1Cc1cccc(C(F)(F)F)c1)C(=O)Nc1ccccc1OC	1	15
CC(=O)c1ccc2c(c1)N(Cc1ccc(OC(F)(F)F)cc1)C(=O)C(C)S2 (centres undefined)	0	-2
CCn1cc2nc(OC)c(CNC(=O)c3cnn4c3CCCC4)cc2c1O	5	0
CCOc1ccccc1NC(=O)CSc1nc2c(cnn2CCO)c(=O)[nH]1	3	5
OCC1CCCN(Cc2csc(-c3ccc(F)cc3)n2)C1 (centres undefined)	-20	-22
CCC1(C)NC(=O)N(NC(=O)c2ccc(-c3ccc(Cl)cc3)s2)C1=O (centres undefined)	-1	-2
O=P1(NCCCN2CCOCC2)C=C(c2ccccc2)OC(c2ccccc2)=C1	17	10
Cc1cccc(NC(=O)CSCC(=O)N2CCN(C)CC2c2ccccc2)c1 (centres undefined)	2	1
CC(C)C[C@@]1(CO)N[C@H](c2nccn2C)[C@@H]2CN(Cc3ccccc3)C[C@@H]21	-1&14	-2&12
c1cc2c3c(cccc3c1)/C(=N/OCC1CO1)C2 (centres undefined)	-3	-9
O=C(c1c[nH]c(=O)c(Cl)c1)N1CCOC(Cc2ccccc2)C1 (centres undefined)	-4	-9
Cc1cc(NC(=O)c2cc3nc(-c4ccc(Cl)cc4)cc(C(F)(F)F)n3n2)no1	0	-1
CC1CC(NC(=O)CC2CSc3nc4c(c(=O)n32)CCCC4)CC(C)(C)C1 (centres undefined)	-3	-4
CC(C)(C)c1noc(CS(=O)Cc2cccc(C(N)=O)c2)n1 (centres undefined)	9	7
CCC(CO)NC(=O)c1c(C(F)(F)F)nn(C2CCCN(C(C)C)C2)c1C (centres undefined)	5	-1
CCn1c(N2CCN(Cc3c(F)cccc3Cl)CC2)nc2c1c(=O)[nH]c(=O)n2C	1	42
O=C1N(c2ccccc2)C(c2ccccc2F)C1(F)F (centres undefined)	5	2
CC(Oc1cccnc1NC(=O)c1ccc(F)cc1F)c1ccccc1 (centres undefined)	3	38
CC(=O)Nc1ccc(S(=O)(=O)Oc2ccc(Cl)cc2CN(Cc2ccc(F)cc2)C(=O)NC(C)C)cc1	-1	7
Cc1cc(C)nc(SCCCn2c(N3CCCCCC3)nc3c2c(=O)[nH]c(=O)n3C)n1	7	1
CN1CCCn2nc(C(=O)NCCc3cnn(-c4ccccc4)c3)cc2C1	4	2
CCn1cnnc1CCNC(=O)CN1CCOc2ccccc2C1	6	1
CC1Cc2ccccc2N1C1=CC(=O)CCC1 (centres undefined)	3	2
CCCCC(CC)COCCCNC(=O)c1cncn1-c1cccc(-c2ccccc2C(F)(F)F)c1 (centres undefined)	15	20
CC(=O)N1CCC(Oc2ccc(Cl)cc2C(=O)N2CCCC(C(N)=O)C2)CC1 (centres undefined)	-4	-7
Fc1ccc2nc3c(nc2c1)c1ccccc1n3Cc1cc(Cl)cc2c1OCOC2	-12	-14
COc1ccc(-n2c(-c3ccc(Cl)cc3)cc(C(=O)NCCc3ccccc3)c2C)cc1	-4	5
CC1(C)OC2C(COS(C)(=O)=O)OC(n3ncc(=O)[nH]c3=O)C2O1 (centres undefined)	5	0
COCc1nc(-c2ccc(-c3ccc(OC)cc3)nc2OC)no1	9	0
OCc1ccc(CN2CCC(CO)(Cc3ccc(Cl)cc3)CC2)o1	17	8
CCc1nc2ccc(C(=O)NCCN3CCOCC3)cn2c1N(CC)C(=O)NCCc1ccccc1	-25	-27
CCOC(=O)CCC(=O)NCc1ccc2[nH]c(C)cc2c1	7	3
CCN(CC)C(=O)Oc1ccc2c(ccn2Cc2cc(F)ccc2F)c1-c1ccc(F)cc1	11	6
CCN(CC)CCNC(=O)c1cc(NC(=O)Nc2ccc(F)c(Cl)c2)ccc1N1CCCCC1	2	13
COc1ccccc1NC(=O)c1ccc2noc(-c3ccccc3)c2c1	7	6
COc1cc(C2NC(=O)NC(C)=C2C(=O)OCCc2ccccc2)cc(OC)c1OC (centres undefined)	-3	-6
O=C(NCC1CCOCC1)c1csc(N2CCN(CCc3ccccc3)C2=O)n1	-1	-3
CCCC(=O)NNC(=O)c1cc(Br)c(OCC)c(OC)c1	14	9
COC(=O)c1cc(C)sc1NC(=O)CC1SC(N2CCOCC2)=NC1=O (centres undefined)	-2	23
O=C(NCCc1ccccc1)c1cccc(OC2CCN(Cc3ccon3)CC2)c1	7	3
Cc1cc(Cl)c2oc(C(=O)N(C)C(C)c3ccccn3)c(C)c2c1 (centres undefined)	4	1
Clc1cccc(-c2nc(N3CCN(C(c4ccccc4)c4ccccc4)CC3)c3ccccc3n2)c1Cl	0	3
FC(F)(F)c1nc(N2CCCC2c2cccs2)c2ccccc2n1 (centres undefined)	10	13
Cc1nnc(-c2cn(CC(=O)NC3CCCCC3)c3ccccc23)o1	3	9
Cn1c(-c2ccccc2Cl)nn(CN2CCN(c3nccs3)CC2)c1=S	5&5	2&5
Cc1cc(C(=O)N(CCCN(C)C)c2nc3ccc(Cl)cc3s2)n(C)n1	6	2
Cc1ccc(CSc2nc(=O)n(CCCO)c3c2CCC3)cc1	-10	-17
COc1ccc(N2CCN(C(=O)C(=O)Nc3cc([N+](=O)[O-])ccc3C)CC2)cc1	-5	3
COc1ccc(C(C)C)cc1-c1nccnc1N(C)Cc1ccccc1	-3	-6
CN1CCN(n2c3c(c(SCC(=O)NCc4ccco4)nc2=O)CCC3)CC1	-2	-5
CN1CC2(CCN(C(=O)CCNC(=O)c3ccc(F)cc3)C2)OC1=O (centres undefined)	3	2
O=C(CNC(=O)c1ccccc1F)Nc1nc(-c2cccs2)cs1	-6	-5
CN(Cc1nc2ccccc2s1)C(=O)CCc1nnc(CCc2c[nH]c3ccccc23)o1	-4	-5
CCCc1n[nH]c(=S)n1CC(=O)NCc1ccc(N2CCCCC2)nc1	9	4
Cc1ccc(F)cc1NC(=O)N1CCCC(O)(CN(C)C)CC1 (centres undefined)	7	5
Cc1nc2cc3ccccc3cc2c(=O)n1/N=C\N(C)C	5	4
CCC(CC)n1ncc(C)c1NC(=O)C(=O)c1ccco1	-8	-9
O=C(C1CCC(O)CC1)N1CCCC(CCc2ccc(F)cc2)C1 (centres undefined)	3	1
(more compounds)
SMILES	NPYLR7 agonist	NPYLR7 agonist max-min
CCc1ccc(CN2CCCC(c3n[nH]c(=O)n3-c3ccccc3)C2)nc1 (centres undefined)	5	2
CCOc1cnn(-c2ccc(Cl)cc2)c(=O)c1Nc1ccc(C(=O)N(C)CC)cc1	21	19
CCn1c(C2CCCNC2)nn(Cc2ccc(C(=O)NC)o2)c1=O (centres undefined)	2	-1
CSc1ccc(CNC(=O)NCc2csc(N(C)C)n2)cc1	4	0
CC(C)(C)Nc1c(-c2cccc(Cl)c2)nc2ccc(Cl)cn12	7	10
O=C(c1ccco1)N1CC(=O)N2C3CCC(O)(CC3)C2C1 (centres undefined)	25	21
O=S(=O)(NC1CCCCC1Sc1ccccn1)c1ccccc1 (centres undefined)	3	3
Cc1oc(-c2cccc(Cl)c2)nc1CN(C)Cc1nccn1C	-5	-9
Cc1nn(CCC#N)c(C)c1[C@H]1C=C[C@@H](OC(=O)Nc2cccc(C(F)(F)F)c2)C1	-8	-16
Cc1nc(CN2CCN(C(=O)c3cn(CCCc4ccccc4)nn3)CC2)cs1	1	-2
CCCN(Cc1cnn(C)c1)S(=O)(=O)/C=C/c1ccccc1	4	3
CCn1ncnc1-c1c(-c2ccccc2)ncn1CCc1nc(C(C)C)no1	21	12
O=C(c1cccc(-c2cc3ccccc3oc2=O)c1)N1[C@H]2CCNC[C@@H]1CC2	-1	-2
CC(C)NC(=S)N=Nc1c(O)n(Cc2ccccc2)c2ccccc12	7	3
C=C1c2ccccc2NC(=S)N1C	-6	-5
C=CC(=O)NCC1Cc2cc(C(C)(C)C)ccc2O1 (centres undefined)	3	6
CN1CCCC(N2CCN(CC(=O)N(C3CCCC3)C3CC3)CC2)C1 (centres undefined)	-2	7
COc1cc(OC)cc(-n2c(CCC(=O)NCc3cccc(Cl)c3)cc3c2-c2ccccc2CC3)c1	23	16
Cc1ccc(-n2nnc3c(=O)n(Cc4ccccc4Cl)cnc32)cc1C	0	-5
CCN1CCN(c2nc(N(C)C)nc(N)c2[N+](=O)[O-])CC1	1	0
CCC(=O)NCc1ccccc1-c1ccnc2c1ccn2C	23	9
Nc1c(C(=O)C2CC2)sc2nc3c(cc12)CCCC3	2	-2
CCCN(CC(=O)Nc1cc(-c2ccccc2)nn1-c1ccc(Cl)cc1)C(=O)Nc1cc(OC)cc(OC)c1	0	2
CCOC(=O)C1=C(CC)NC2=C(C(=O)CC(C)(C)C2)C1c1ccccc1 (centres undefined)	5	6
COc1ccc(OCCOc2ccccc2C#N)cc1	6	6
Cc1cccc(NS(=O)(=O)c2c(Cl)cccc2Cl)c1	5	1
CC1CCN(C(=O)Cn2cc(SCC(=O)N3CCCc4ccccc43)c3ccccc32)CC1	-3	-4
Cc1nonc1CN(C)C(=O)CCNC(=O)c1ccccc1F	-1	-1
COCc1cc(CNC(=O)[C@H](N)c2ccccc2)[nH]n1	-6	-8
Cc1ncsc1CCC(=O)N(C)C1CCCN(C2Cc3ccccc3C2)C1 (centres undefined)	1	0
CN1CCN(c2cc(N(C)Cc3cc4cc(F)ccc4[nH]3)nc(N)n2)CC1	13	7

This is a subset. The share of hits here may be higher or lower than overall.
